TDP1 inh: qHTS Assay for Inhibitors of Tyrosyl-DNA Phosphodiesterase (TDP1) | Tyrosyl-DNA phosphodiesterase 1 (Homo sapiens), Q9NUW8 | recombinant TDP1, AlphaScreen DNA substrate cleavage | Potency, µM (top dose mostly 130 µM), without a hit: top-dose activity change, negative = inhibition, hits mostly inhibitors | actives 0.28% (n = 350,000); further: nearly all actives have a fitted effect of over 40% in size
Target sequence (Q9NUW8 whole entry, looked up): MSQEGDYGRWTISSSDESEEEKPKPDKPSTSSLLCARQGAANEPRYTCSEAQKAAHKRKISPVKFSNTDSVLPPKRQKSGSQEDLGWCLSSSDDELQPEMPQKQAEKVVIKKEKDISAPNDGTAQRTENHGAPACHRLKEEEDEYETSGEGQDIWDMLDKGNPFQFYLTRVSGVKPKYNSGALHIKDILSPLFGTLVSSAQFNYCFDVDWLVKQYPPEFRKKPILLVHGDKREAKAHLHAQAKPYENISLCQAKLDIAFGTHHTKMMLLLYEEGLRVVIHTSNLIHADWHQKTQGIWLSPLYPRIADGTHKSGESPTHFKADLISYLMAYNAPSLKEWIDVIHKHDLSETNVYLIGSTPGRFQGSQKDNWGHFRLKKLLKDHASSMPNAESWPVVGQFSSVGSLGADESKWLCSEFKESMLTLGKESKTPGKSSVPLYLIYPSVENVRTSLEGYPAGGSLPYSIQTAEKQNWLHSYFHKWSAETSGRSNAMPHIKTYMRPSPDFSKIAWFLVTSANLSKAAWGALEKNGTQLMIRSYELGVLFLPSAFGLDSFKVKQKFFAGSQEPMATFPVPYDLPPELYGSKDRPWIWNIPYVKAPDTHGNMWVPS
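Here, a 5' biotin and 3' phosphotyrosine-FITC DNA oligonucleotide reports Tdp1 activity: intact substrate bridges AlphaScreen beads, while cleavage leaves a 3' phosphate and drops signal. All incubations at room temperature.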
FEN1 inhibitor: qHTS Assay for the Inhibitors of Human Flap endonuclease 1 (FEN1); Recombinant FEN1 flap cleavage, fluorescence, 15 min; Potency, µM (series often up to 114 µM), without a hit: at the highest dose activity change, negative = inhibition, hits mostly inhibitors; actives 0.35% (n = 390,000); AID 588795, 2011; further: nearly all actives have a fitted effect of over 65% in size
Target sequence (P39748 whole entry, looked up): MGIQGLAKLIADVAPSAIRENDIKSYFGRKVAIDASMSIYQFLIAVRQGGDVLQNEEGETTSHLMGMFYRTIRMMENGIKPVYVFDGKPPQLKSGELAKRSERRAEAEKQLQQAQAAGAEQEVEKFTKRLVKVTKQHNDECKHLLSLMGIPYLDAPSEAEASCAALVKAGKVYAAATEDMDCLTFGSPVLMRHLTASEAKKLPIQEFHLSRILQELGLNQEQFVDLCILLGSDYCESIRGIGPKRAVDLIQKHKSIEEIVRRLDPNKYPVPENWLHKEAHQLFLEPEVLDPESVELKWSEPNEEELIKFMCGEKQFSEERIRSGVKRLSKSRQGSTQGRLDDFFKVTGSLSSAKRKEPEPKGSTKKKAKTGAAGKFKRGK
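Reaction started by adding substrate (50 nM final) to 10 nM enzyme after 15 min room-temperature compound preincubation. Reads at 0 and 15 min, with data normalized and fitted to a four-parameter Hill equation.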
Numbers without * were called inactive; u = inconclusive; x = not tested or not shown; & = joins results of further samples; [ ] = another dose, or the depositor's remark. The call rests on the fitted dose curve; in most records, active means well fitted inhibition curve with a large enough effect; inconclusive means small, poorly fitted or top-dose-only effect; inactive means no such curve, though single readings can be large or run the other way. On the % scale 0 is the no-effect control and ±100 the full control effect; potency means the concentration at half of the fitted maximal effect. Some of the compounds tested, and most or all hits are left out here.

The line under a structure holds: TDP1 inh	FEN1 inhibitor
O=S(=O)(NCc1ccccn1)c1cccc2nsnc12
  2%	5%
CC(=O)N1c2c(ccc3ccccc23)C(C)CC12CCCCC2 (stereo not drawn)
  0%	-20%
COc1ccc(N2CCN(C(=O)c3cccc(NC4=NC5CS(=O)(=O)CC5S4)c3)CC2)cc1 (stereo not drawn)
  3%	1%
N/C(=N\NC(=O)c1ccc(Cl)cc1)c1cnccn1
  x	36%[activator]
Nc1cc(C(=O)c2ccccc2)ccc1[N+](=O)[O-]
  1%	-9%
Nc1c2c(nc3ccc(Br)cc13)N(Cc1ccccc1)CC2
  3%	-28%
COc1nc(NCCO)nc(Nc2ccc([N+](=O)[O-])cc2)n1
  -3%	-10%
Cc1nn2c(-n3ccnc3C)c3c(nc2c1-c1ccccc1)CCC3
  2%	-1%
Cc1cccc(OCCCC(=O)NCc2ccco2)c1
  4%	0%
OC1(c2cccs2)CN(c2ccc(Br)cc2)C2=[N+]1CCCS2 (stereo not drawn)
  -5%	3%
Cc1cc(C)cc(C(=O)NC(CC(N)=O)c2ccc(N3CCC(N4CCCCC4)CC3)c([N+](=O)[O-])c2)c1 (stereo not drawn)
  x	4%
CCc1nc2n[nH]c(N)c2c2c1CSC(C)(C)C2
  0%	-3%
COc1ccc(C2(CNC(=O)c3cc([N+](=O)[O-])cc([N+](=O)[O-])c3)CCCC2)cc1OC
  8%	12%
Cn1c2c(c(=O)n(C)c1=O)C(C(F)(F)F)(C(F)(F)F)N=C(c1ccccc1Cl)N2
  -2%	-11%
CCCCn1c(N)c(N(CCOC)C(=O)c2cc3ccccc3cc2OC)c(=O)[nH]c1=O
  0%	-4%

A draw from above in order of length of the SMILES, falling:
The line under a structure holds: TDP1 inh	FEN1 inhibitor
Cc1cc(C)cc(C(=O)NC(CC(N)=O)c2ccc(N3CCC(N4CCCCC4)CC3)c([N+](=O)[O-])c2)c1 (stereo not drawn)
  x	4%
COc1ccc(C2(CNC(=O)c3cc([N+](=O)[O-])cc([N+](=O)[O-])c3)CCCC2)cc1OC
  8%	12%
OC1(c2cccs2)CN(c2ccc(Br)cc2)C2=[N+]1CCCS2 (stereo not drawn)
  -5%	3%

Next compounds follow.
The line under a structure holds: TDP1 inh	FEN1 inhibitor
Cc1ccc(S(=O)(=O)NCC(=O)N(CC(=O)NC(C)(C)C)Cc2cccs2)cc1
  5%	-13%
COc1ccc(NC(=O)c2cnc(SC)nc2)cc1
  4%	-10%
COc1ccc(NCCC(O)c2ccc(Cl)cc2)cc1 (stereo not drawn)
  x	-9%
CN(C)C(=O)CSc1nc2ccc(N3C(=O)c4ccccc4C3=O)cc2s1
  1%	2%
COC(=O)c1scc(C)c1-n1ccc(C(=O)C(=O)N(C)C)c1
  5%	-11%
CSc1ncccc1-c1nc2ccccc2[nH]1
  6%	1%
O=C(CCC(=O)N(c1ccccc1)C(C(=O)NC1CCCC1)c1ccncc1)Nc1cccnc1 (stereo not drawn)
  12%	-10%
CC(NC(=O)CSc1ncnc2nc[nH]c12)c1ccccc1 (stereo not drawn)
  -2%	-11%
CC(C)CC(=O)Nc1ccc2nn(-c3ccccc3)nc2c1
  -1%	1%
Cc1sc2ncnc(OCC(=O)c3ccc(S(=O)(=O)N4CCCC4)cc3)c2c1C
  6%	-19%
C[C@H](NC(=O)C1CC(=O)N(c2ccc3c(c2)OCCO3)C1)C(=O)N1CCC(C(=O)O)CC1 (stereo partly drawn)
  3%	20%
COc1cc(C2CC(=O)NC(SCC(=O)Nc3ccccc3C)=C2C#N)ccc1O (stereo not drawn)
  -1%	6%
COc1ccc(-c2nc(CN3CCCC(C(=O)NC4CCCC4)C3)c(C)o2)cc1 (stereo not drawn)
  5%	-11%
O=C(Nc1ccc(NC(=O)c2cc([N+](=O)[O-])ccc2N2CCOCC2)cc1)c1cccs1
  -3%	5%
COCCn1c(SCc2cc(C(C)=O)ccc2OC)nc2cc(Cl)ccc2c1=O
  3%	-13%
O=C(CCN1CCOCC1)NNC(=O)Nc1cccc(C(F)(F)F)c1
  3%	5%
O=C(NCC(=O)N(Cc1cccs1)C(C(=O)NC1CCCC1)c1cccnc1)c1ccco1 (stereo not drawn)
  -2%	4%
CC(=O)C1=C(C)NC(C)=C(C(C)=O)C1c1ccccc1
  4%	6%
O=C(c1ccc2ccccc2n1)N1CCN(Cc2c(F)cccc2Cl)CC1
  3%[0.0935 µM]	1%
Clc1ccc(COn2c(-c3ccc(Cl)cc3Cl)nc3ncccc32)cc1
  6%	-26%
CC(Cc1cccs1)NC(=O)Nc1cccc(Cl)c1 (stereo not drawn)
  2%	-17%
COc1ccc(C(=O)N2c3cc4c(cc3C(C)=CC2(C)C)OCO4)cc1
  11%	-12%
Cc1cccc(-n2c(=S)[nH]c3nc4c(cc3c2=O)COC(C)(C)C4)c1
  0%	2%
Cc1c(NC(=O)CN(c2ccccc2)S(=O)(=O)c2ccc(F)cc2)c(=O)n(-c2ccccc2)n1C
  1%	0%
Cn1cc(S(=O)(=O)N2CCc3ccccc32)cc1C(=O)NC(C)(C)C
  x	2%
Cc1ccccc1OCCNC(=O)CNC(=O)c1ccccc1O
  2%	2%
CSc1ccccc1C(=O)NC1CCCN(c2ccc(C(F)(F)F)cn2)C1 (stereo not drawn)
  1%	-8%
Cc1cccc(S(=O)(=O)N2CCC(CO)(Cc3ccccc3)CC2)c1
  1%	-9%
Cc1ccc2nc(SCC(=O)N3CCCCCC3)nc(=O)n2c1
  -6%	2%
COCCCn1c2nc3ccccc3nc2c2c(=O)n(-c3ccccc3OC)cnc21
  2%	3%
CCCCC(c1nnnn1Cc1ccco1)N1CCN(C(=O)c2ccco2)CC1 (stereo not drawn)
  2%	-2%
COc1ccc(-c2nnc(SCC(=O)NC3CCCC3)n2C)cc1
  2%[0.0935 µM]	-2%
O=C(c1ccco1)N1CCC(c2nc(-c3ccccc3Cl)no2)CC1
  0%	-11%
O=C(O)c1ccc(-c2nnc(-c3cccc(Br)c3)o2)cc1
  x	19%
CCOC(=O)c1cc(C)n(Cc2ccccc2)c1C
  10%	3%
CCn1cc(S(=O)(=O)c2ccc(Cl)cc2)c(=O)c2cc(OC)ccc21
  2%	-11%
Cc1ccsc1C(=O)OCC(=O)N(C)c1c(N)n(Cc2ccccc2)c(=O)[nH]c1=O
  7%	-2%
CCC(CC)N=C1NS(=O)(=O)c2cc([N+](=O)[O-])ccc21
  -1%	-1%
Nc1ncnc2c1ncn2[C@@H]1O[C@H](COP(=O)(O)OP(=O)(O)OP(=O)(O)O)[C@@H](O)[C@H]1O
  -2%	-4%
O=C(CCCn1c(=S)[nH]c2ccccc2c1=O)N1CCCCC1
  0%	-13%
CCc1c(C)sc(NC(=O)C2CCCCC2C(=O)O)c1C(N)=O (stereo not drawn)
  3%	4%
COC(=O)[C@H]1Cc2c([nH]c3ccccc23)[C@H](c2ccccc2)N1
  x	-6%
Cc1ccc(C(C)(C)NC(=O)C2CCC(=O)N(C3CCCCCC3)C2)cc1 (stereo not drawn)
  3%	1%
C=CCN1C(=O)C2(OCCCO2)c2cc(C)ccc21
  2%	1%
CCCn1ncc(OC)c(Cl)c1=O
  2%	-15%
COc1ccc(NC(=O)/C(C#N)=C/c2ccc(Sc3nncn3C)c([N+](=O)[O-])c2)cc1
  8%	12%
CCC(C)NC(=O)CSc1nc(-c2cccs2)cc(C(F)(F)F)n1 (stereo not drawn)
  8%	-1%
Cc1ccc(-c2nnc(N3CCN(C(=O)CN4CCOCC4)CC3)c3ccccc23)cc1
  1%	0%
COc1cc(C=C2C(=O)OC(c3ccccc3)OC2=O)cc(Br)c1O (stereo not drawn)
  7%	0%
Cn1c(=O)c(C(=O)NNC(=O)c2ccccc2Cl)c(O)c2ccccc21
  x	-24%
CC(=O)c1ccc(NC(=O)Cn2cnc(S(=O)(=O)N3CCCC3)c2)cc1
  5%	-2%
CC(=O)N(/N=C/c1cccc(C)c1)c1nc(-c2ccc(Br)cc2)cs1
  -2%	-11%
O=C1NC(=Nc2ccccc2Cl)SC1(CO)CO
  2%	23%
Cc1nnc(NCc2cccc(Cl)c2)c2ccccc12
  8%	-10%
CC(C)(C)n1nnnc1C(c1cccc(C#N)c1)N1CCCCCC1 (stereo not drawn)
  6%	-7%
C=CCn1c(SCc2cc(=O)n3cc(C)ccc3n2)nnc1-c1ccc(F)cc1
  -1%	-1%
COc1cccc(Nc2nc(-c3cccnc3)cs2)c1
  5%	6%
CCOc1ccc(N(CC(=O)O)S(=O)(=O)c2cccnc2)cc1
  3%	2%
COC(=O)c1cc2c(ccn2-c2ccc(F)cc2)n1CC(=O)N1CCN(C(=O)c2ccco2)CC1
  3%	9%
COc1ccccc1CNC(=O)C(CCSC)NS(=O)(=O)c1ccc2c(c1)oc(=O)n2C (stereo not drawn)
  -1%	-2%

(continued)
The line under a structure holds: TDP1 inh	FEN1 inhibitor
Cc1cccc(OCC(O)Cn2ccnc2C)c1 (stereo not drawn)
  3%	-5%
Cn1c(SCC(=O)OC2CCCCC2)nnc1-c1ccc2c(c1)OCO2
  0%	-3%
Cc1noc(C)c1S(=O)(=O)N1CCC2(CC1)OCCO2
  1%	-11%
CCSc1nc(-c2ccccc2)nc2c1CCCC2
  -5%	12%
CC1(C)Cc2ccccc2C(NNC(=O)c2ccccn2)=N1
  9%	-12%
O=C(OCc1nnc(-c2ccc(Br)cc2)o1)c1ccco1
  1%	3%
O=C(Cn1nnc(-c2ccccc2)n1)OC1CCOC1=O (stereo not drawn)
  5%	-1%
CCOC(=O)N1CCN(C(=O)CSCC(=O)Nc2nc(-c3ccc4c(c3)OCO4)cs2)CC1
  1%	-1%
Cc1cc(-c2ccc(C)c(S(=O)(=O)N3CC(=O)Nc4ccccc43)c2)on1
  -3%	0%
Cc1ncc(CO)c(/C=N/NC(=O)c2cc(Br)ccc2O)c1O
  9%	-18%
CCNc1nc(NCC)nc(N/N=C/c2ccccc2)n1
  x	-17%
CC(=O)NC(Cc1ccc(F)c(F)c1)C(=O)NC1CCN(C(=O)c2ccc(Cl)cc2)CC1 (stereo not drawn)
  x	-1%
CCn1cc(CN2CCc3c([nH]c4ccccc34)C2c2cccc(OC)c2)c(C)n1 (stereo not drawn)
  x	-13%
CN(C)c1ccc(C2NC(=O)c3ccccc3N2)cc1 (stereo not drawn)
  3%	-4%
Cc1cc(C)c(C)c(OCCCCn2cnc3ccccc3c2=O)c1
  -3%	-6%
CCOC(=O)c1c(CSC(=N)N)n(C)c2cc(Br)c(OC(C)=O)cc12
  x	-3%
CC1=C(CC(=O)O)c2cc(F)ccc2/C1=C\c1ccc(S(C)=O)cc1 (stereo not drawn)
  9%[56.1 µM]	15%
Cc1cc(C)c(C#N)c(SCc2nc3ccccc3c(=O)[nH]2)n1
  3%	-7%
CCN(CC)S(=O)(=O)c1cccc(C(=O)NCCCN2CCOCC2)c1
  2%	9%
CC(C)(C)C(=O)Nc1nnc(SCc2cccc(F)c2)s1
  -1%	12%
COc1ccccc1NS(=O)(=O)c1ccc(C)c(C(=O)NCC(c2ccco2)N(C)C)c1 (stereo not drawn)
  x	-8%
COc1ccc(CC(=O)NC(C)c2nnc(SCC(=O)Nc3ccccc3)n2C)cc1 (stereo not drawn)
  -1%	22%
CC(O)[C@H]1CNC(=O)C(=O)N1CC(C)(C)C (stereo partly drawn)
  -2%	-6%
CN(CC(=O)O)S(=O)(=O)c1ccc2c(c1)n(C)c(=O)c(=O)n2C
  6%	3%
COc1ccc(Cn2ccnc2SCC(=O)NC2CCCC2)cc1
  5%&3%	7%&-6%
C/C(=N\NC(=O)C1(C)CC1(Br)Br)c1ccc(NC(=O)C2CCC2)cc1 (stereo not drawn)
  1%	1%
CCN1CCN(C(=O)c2ccc3c(=O)n(CCC4=CCCCC4)c(=O)[nH]c3c2)CC1
  8%	-2%
O=C(CSc1ccccn1)N/N=C/c1cccc([N+](=O)[O-])c1
  5%	-3%
FC(F)(F)c1ccc(CN2CCN(Cc3ccco3)CC2)cc1
  5%	0%
COc1cccc(C(=O)NC2CCSC2=O)c1 (stereo not drawn)
  -5%	4%
COc1ccc(OCC(O)Cn2c(Br)nc3c2c(=O)[nH]c(=O)n3C)cc1 (stereo not drawn)
  5%	5%
COC(=O)c1cc2occc2n1CC(=O)Nc1ccc(C)cc1C
  6%	1%
Cc1ccc2nc(SCC(=O)c3c(N)n(C4CC4)c(=O)[nH]c3=O)[nH]c2c1
  -12%	u
COc1cc(/C=N/NC(=O)Cc2ccccc2)ccc1Oc1ccc([N+](=O)[O-])cc1[N+](=O)[O-]
  0%	-22%
CC(C)c1[nH]nc2c1C(c1cccs1)C(C#N)=C(N)O2 (stereo not drawn)
  3%	0%
Cc1onc(-c2ccccc2)c1C(=O)Nc1ccc(S(=O)(=O)NC2=NCCCCC2)cc1
  5%	-4%
O=C(COC(=O)Cc1c(F)cccc1Cl)Nc1nnc(-c2ccccc2)o1
  x	-3%
Cc1onc(-c2c(F)cccc2Cl)c1C(=O)N1CCN(c2ncc(Br)cn2)CC1
  -3%	1%
COc1cc([N+](=O)[O-])cc(/C=N/NC(=O)c2cncc(Br)c2)c1O
  11%	-17%
O=c1cc(N2CCN(Cc3ccccc3)CC2)c(-c2ccccc2)n[nH]1
  1%	-11%
